Compound activity deposited in PubChem BioAssay by Broad Institute.
Tgondii IFNg: blocks Toxoplasma gondii growth in the presence of IFN-gamma. Toxoplasma gondii growth in IFN-gamma-treated host cells; active compounds read low; reference of the scale not given here. activity change, negative = inhibition, %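 (about 20 µM by stock and volumes)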. 69,000 compounds, 3.8% hits. AID 1259416;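 active = below -70%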;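 note: host cells are HeLa cells infected with Toxoplasma gondii; parasite growth read as luciferase light; one replicate is shown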
* marks the source's active call; other numbers are inactive results; & = joins results of further samples. An excerpt, so the mix of outcomes need not match the whole.

SMILES | Tgondii IFNg
COc1ccc(Br)c(-c2nc(-c3ccc(C(F)(F)F)cn3)no2)c1 | 85
CCOc1ccc(-c2nc(Cn3c(=O)c4c(C)cc(C)nc4n(C)c3=O)c(C)o2)cc1OC | 4
COc1cccc(-n2cnc3ccccc32)n1 | -90*
Cc1nccn1CCC(=O)NC(Cc1ccccc1)c1ccc2c(c1)OCCO2 (stereo not drawn) | 44
Cc1cc(C(F)(F)F)n2ncc(C(=O)N3CCCC(N(C)C)CC3)c2n1 (stereo not drawn) | -9
CC(C)NC(=O)Nc1ccc2c(c1)C(=O)N(C)[C@H]1CC[C@H](CC(=O)NCc3ccc(F)cc3)O[C@H]1CO2 | -42
N#C[C@H]1[C@H](c2ccccc2)[C@@H](CO)N1C(=O)Nc1cccc(F)c1 | 8
COc1ccc(-c2nc3c(s2)CN(S(=O)(=O)c2cc(C)cc(C)c2)CC3)cc1OC | -125*
CC(C)(N)COC12CC3CC(CC(C3)C1)C2 | 37
CCCn1cnnc1CN(C)Cc1nc[nH]c1C | 1
COc1cccc(-c2noc3c2CN(c2ccc(C)nn2)CC3)c1 | -13
COc1cccc(CN(C(=O)Cc2ccncc2)C2CC2)c1 | -6
COc1ccc2c(c1)NC1(CCN(C(=O)NC3CCCCC3)CC1)c1cccn1-2 | 174
COC(=O)c1coc(CN2CCCC2c2nc3ccccc3s2)n1 (stereo not drawn) | 6
CC(N)CC(=O)NCc1cccnc1Oc1cccc(C(F)(F)F)c1 (stereo not drawn) | -7
CSc1ccc(CN(CCO)C(=O)c2ccc(Cl)s2)cc1 | -40
O=C(CCc1ccccc1)N1CCC2(CC1)Nc1ccc(Cl)cc1-n1cccc12 | -121*
CCc1ccc(-c2c(-c3ccccc3)ncn2CCc2cnc[nH]2)nc1 | -15
CN1CCN(C(=O)c2nc3ccc(Cl)cc3[nH]2)CC1 | 16&6
CCOCC1CN(C(=O)N(C)C)Cc2ncn(CC3CC3)c21 (stereo not drawn) | -13

Structural class, those above containing a carbonyl joined to an NH by a bond outside any ring (five)
SMILES | Tgondii IFNg
Cc1nccn1CCC(=O)NC(Cc1ccccc1)c1ccc2c(c1)OCCO2 (stereo not drawn) | 44
CC(C)NC(=O)Nc1ccc2c(c1)C(=O)N(C)[C@H]1CC[C@H](CC(=O)NCc3ccc(F)cc3)O[C@H]1CO2 | -42
N#C[C@H]1[C@H](c2ccccc2)[C@@H](CO)N1C(=O)Nc1cccc(F)c1 | 8
COc1ccc2c(c1)NC1(CCN(C(=O)NC3CCCCC3)CC1)c1cccn1-2 | 174
CC(N)CC(=O)NCc1cccnc1Oc1cccc(C(F)(F)F)c1 (stereo not drawn) | -7

Other structures follow.
SMILES | Tgondii IFNg
O=C(O)Cn1cnc2ccccc2c1=O | 0
Cc1ccc(Cl)cc1NC(=O)C(=O)NCCc1sc(-c2ccc(F)cc2)nc1C | 46
CC(C)Cn1cncc1CNc1nc(-c2ccncc2)nc2c1CNC2 | 13
CN1C(=O)c2cc(NS(C)(=O)=O)ccc2OC[C@H]2O[C@H](CC(=O)NCc3ccccc3)CC[C@@H]21 | 9
COC(=O)c1ccc(NC(=O)C(=O)NCCc2sc(-c3ccccc3)nc2C)cc1 | -45
CCOc1ccc(NC(=O)N2CCC(c3nc(C(=O)N4CCOCC4)c(C)o3)CC2)cc1 | 11
CCCCCCCCCCCCCCCC(=O)OC[C@H](COP(=O)(O)OCC[N+](C)(C)C)OC(=O)CCCCCCCCCCCCCCC | -8
O=c1[nH]c(N2CCCCC2)nc2c1CN(Cc1nnnn1Cc1cccs1)CC2 | 73
COc1ccccc1-c1nc(CSc2nc3c(c(=O)[nH]2)CN(Cc2ccccc2)CC3)c(C)o1 | 5
COc1ccc2c3c([nH]c2c1)[C@H](CO)N(S(=O)(=O)c1cn(C)cn1)CC31CCN(Cc2ccccc2Cl)CC1 | 1
CCSc1nc(CC(=O)Nc2cnc3n2CCCC3)cs1 | 8
CC(=O)N1CCc2sccc2C1c1ccccc1NC(=O)c1ccncc1 (stereo not drawn) | 21
Cn1c(=O)c2c(nc(SCCNS(=O)(=O)c3ccccc3)n2C)n(C)c1=O | -3
O=C(NCc1ccccc1)N1CCC2(CC(=O)N(c3ccccc3)C2)C1 (stereo not drawn) | 0
Cc1cc(C)n(C(C)C(=O)NCCc2cn(C)c3ccc(Cl)cc23)n1 (stereo not drawn) | 11
Cc1cccc(Nc2nc(C(=O)Nc3ccc(C)c(Cl)c3)nc3ccccc23)c1 | -50
Cc1ccc2c(c1)C(=O)CCCC1C(=O)N2CCN1C(=O)c1ccccc1 (stereo not drawn) | -5
O=C(CN1C(=O)CCc2cc(Br)ccc21)NCCC1=CCCCC1 | 60
O=C(C[C@@H]1CC[C@@H]2[C@H](COC[C@H](O)CN2C(=O)c2cccnc2)O1)NCC1CC1 | 47
CC1Cc2ccccc2N1c1ncnc2c1nnn2Cc1ccccc1Cl (stereo not drawn) | -94*

(next part)
SMILES | Tgondii IFNg
CCOc1ccc2oc(C)c(C(=O)NCC3CCN(C)C3)c2c1 (stereo not drawn) | -52
C=CCN1CC(C(=O)N2CCN(c3nc(C)cc(C)n3)CC2)CC1=O (stereo not drawn) | -6
Cc1nc(NCCN(C)CCc2ccccc2)c2cnn(C)c2n1 | -4
CCOC(=O)c1cc(-c2ccccc2)sc1NC(=O)c1ccc(Cl)cc1 | 17
O=C1[C@@H]2C[C@H](O)CCN2C(=O)CN1Cc1cccc2[nH]ccc12 | 4
CO[C@@H]1CN(C)C(=O)c2cc(NS(=O)(=O)c3cn(C)cn3)ccc2OC[C@H](C)NC[C@@H]1C | 81
COc1cccc2c1OCC(C(=O)N1Cc3cnn(CCO)c3C1)C2 (stereo not drawn) | 66
CN(C)C(=O)COCc1nnn2c1CN(C1CCOCC1)CCC2 | 2
Cc1cc(=O)oc2cc(CN3CCC(OCc4cccnc4)CC3)ccc12 | 2
NCC1CN(Cc2cc(C#CCO)cs2)CCO1 (stereo not drawn) | 7
Nc1cc2ncnc(Nc3cccc(Br)c3)c2cc1N | 11
C[C@H](CO)N1C[C@H](C)[C@@H](CN(C)Cc2ccc(C(F)(F)F)cc2)OCCCC[C@H](C)Oc2ccc(NC(=O)Nc3cccc4ccccc34)cc2C1=O | 24
Cc1nc(-c2ccccc2)sc1C(=O)Nc1c(C)nc2ccccn2c1=O | 11
C[C@@H]1CN([C@H](C)CO)C(=O)CCCn2cc(nn2)CO[C@@H]1CN(C)C(=O)Nc1cccc(C(F)(F)F)c1 | -40
CCN(CC)CC#CCC(OC)(c1ccccc1)c1ccccc1 | -22
Cn1cc(C(=O)NCc2cc(-c3ccccc3Cl)no2)ccc1=O | 8
CCN(C)c1ccnc(C2COCCN2CC2CCOCC2)n1 (stereo not drawn) | -1
Cc1oc(-c2ccc(C(=O)NCc3cccs3)cc2)nc1CN1CCc2ccccc21 | -94*
COc1ccc2c3c(n(C)c2c1)[C@@H](CO)N(Cc1ccncc1)CC31CN(C(=O)C2CCCCC2)C1 | -58
COc1ccc(S(=O)(=O)Nc2ccc(Cl)c(C(F)(F)F)c2)cc1OC | -38

Continuation:
SMILES | Tgondii IFNg
O=c1[nH]nc(Cc2cccnc2)n1CCc1ccccc1 | 1
O=C(NCCc1csc(-c2ccc(F)cc2)n1)C(=O)Nc1cccc(Cl)c1 | -23
COC(=O)[C@@H]1C[C@H](NC(=O)CCNC(=O)c2ccc(F)cc2)CN1C | 19
CN1CCC2(C=C(C(=O)N(C)C)c3ccccc32)CC1 | -1
Cc1ccc2[nH]cc(-c3ccc(C)nc3)c2c1 | 21
Fc1ccccc1C1CCN(Cc2cc3n(n2)CCNC3)C1 (stereo not drawn) | 3
O=S(=O)(c1ccc(F)cc1)N1CC2CCC1C2Oc1ccccn1 (stereo not drawn) | -67
COc1ccc2[nH]cc(C(=O)N3CCC4(CCCO4)CC3)c(=O)c2c1 | 13
CCOC(=O)C(NC(C)=O)(OCc1ccccc1)C(F)(F)F (stereo not drawn) | 74
O=C(CC1N=C2c3ccccc3N=C(SCc3cccc(Cl)c3)N2C1=O)NCCc1ccccc1 (stereo not drawn) | -25
Cc1cnccc1CN(C)C(=O)c1cccc(NC(=O)C2CCCO2)c1 (stereo not drawn) | -3
CCNc1ncc(C(=O)N(Cc2ccc(SC)cc2)C2CC2)cn1 | -13
O=c1[nH]c2ccc(Cl)cc2c(O)c1-c1nc(-c2cccc(F)c2)no1 | 88
O=C(NCCc1cc2nc(-c3ccncc3)ccn2n1)C1CCOCC1 | 16
O=C(CSc1ccc(Cl)cc1)Nc1ccc2[nH]c(=O)[nH]c2c1 | 19
N#C[C@H]1[C@@H](c2ccccc2-c2ccccc2F)[C@@H](CO)N1C(=O)Cc1ccccc1 | -34
CCOCC(=O)Nc1ccccc1C(=O)N1CCOCC1 | 15
COc1ccccc1CNc1nc(-c2ccc(Cl)cc2)nc2ccccc12 | -50
CCCCOCCOCCOCc1cc2c(cc1CCC)OCO2 | -63
COc1cc(CCC(C)NC(=O)C2CCCCC2)ccc1OC(=O)C1CCCCC1 (stereo not drawn) | 34

New compounds follow:
SMILES | Tgondii IFNg
O=C(NC1CCCC1)[C@H]1[C@H](CO)[C@H]2Cn3c(cccc3=O)[C@H]2N1CCc1ccccc1 | 5
O=CCN1CCC2(CC1)CN(c1cccc(F)c1)C2=O | 47
Cn1cccc1C(=O)N1Cc2nccn2CC(CN2CCCC2=O)C1 (stereo not drawn) | 0
CNC(=O)c1cccc(S(=O)(=O)N2CCCC(O)(CN(C)C)CC2)c1 (stereo not drawn) | 23
Cn1c(=O)[nH]c2nnc(-c3ccc(Cl)c(Cl)c3)nc2c1=O | 229
CN1CC2(CCN(C(=O)c3ccc[nH]3)CC2)OCC1=O | -32
CCC(=O)N1[C@H](CO)[C@H]2c3ccccc3N(C(=O)c3cnccn3)C[C@H]21 | -4
O=C(Cn1nc(-c2ccccc2)nc1-c1ccccc1)N1CCCc2ccccc21 | -20
Cc1ccc2c(c1C)NC(=O)C2CC(=O)N1C[C@H]2C[C@H](O)[C@H](O)C[C@H]2C1 (stereo partly drawn) | 1
CSc1nc(C(=O)N2CCCC(CCC(=O)NCc3ccccc3F)C2)cs1 (stereo not drawn) | -30
COc1ccc(-c2nc(Nc3cc(C)ccc3C)c3ccccc3n2)cc1 | -6
COC(=O)CC(=O)CSc1ccccn1 | -10
COc1ccc([C@@H](C)C(=O)c2ccc(O)cc2O)cc1 | -22
Cc1ccsc1CN1CCc2nc(C3CCCN3C(=O)C3CCC3)[nH]c(=O)c2C1 (stereo not drawn) | 20
Cc1noc(CN(C)C(=O)c2c(-n3cccc3)sc(C)c2C)n1 | 1
COc1cc(-c2cccs2)cc(=O)c2c(C)oc(C)c12 | 13
O=C(CN1CCCCC1)N1CCOC(CCCc2ccccc2)C1 (stereo not drawn) | -19
CCOC(CN1CCN(CC(C)C(=O)c2ccccc2)CC1)c1ccccc1 (stereo not drawn) | -9
CS(=O)(=O)c1ccc2ccn(O)c2c1 | 68
CC(=O)ON1C(c2ccccc2)N=C(c2ccccc2)C1(C)C (stereo not drawn) | 0

Copied from the entries so far for reference:
SMILES | Tgondii IFNg
O=C(NC1CCCC1)[C@H]1[C@H](CO)[C@H]2Cn3c(cccc3=O)[C@H]2N1CCc1ccccc1 | 5
O=CCN1CCC2(CC1)CN(c1cccc(F)c1)C2=O | 47
Cn1cccc1C(=O)N1Cc2nccn2CC(CN2CCCC2=O)C1 (stereo not drawn) | 0
CNC(=O)c1cccc(S(=O)(=O)N2CCCC(O)(CN(C)C)CC2)c1 (stereo not drawn) | 23

Later entries
SMILES | Tgondii IFNg
COc1ccc2c3c(n(C)c2c1)[C@@H](CO)N(Cc1ccccc1)CC31CN(CC2CC2)C1 | 171
CCN(C[C@H]1[C@H](c2ccccc2)[C@H](CO)N1CC1CC1)C(=O)c1ccccn1 | 4
COc1ccc(OC)c(CC(=O)N2CCC(c3nc(C)ncc3-c3ccncc3)CC2)c1 | -61
C=C[C@@]1(C)CC(=O)[C@]2(O)[C@@]3(C)[C@@H](O)CCC(C)(C)[C@@H]3[C@H](O)[C@H](OC(=O)CCCN3CCN(C)CC3)[C@@]2(C)O1 | 5
COc1cccc(-c2nc(-c3noc4ccc(C(=O)Cc5ccccn5)cc34)co2)c1 | -11
Cc1cnc(C)c(-c2ccccc2CO)n1 | 2
CN(C1CCCCC1)S(=O)(=O)c1ccc(NCc2cnn3cccnc23)cc1 | -1
CC(=O)OC(C)(C)[C@@H]1Cc2cc3ccc(=O)oc3cc2O1 | 13
C[C@@H]1CN([C@H](C)CO)C(=O)c2cc(N(C)C)ccc2O[C@H]1CN(C)CC1CCCCC1 | 10
CN(C)c1ccc(C(=O)C(F)(F)F)cc1 | 1
O=C(O)Cc1ccc(O)c(F)c1 | -35
COc1ccc(CN(C)C[C@@H]2Oc3ccc(NC(=O)Nc4ccc5c(c4)OCO5)cc3CC(=O)N([C@@H](C)CO)C[C@@H]2C)cc1 | -25
CC(CCc1ccco1)NC(=O)c1cc(Cn2ccc3ccccc32)[nH]n1 (stereo not drawn) | 17
Fc1cc(Br)c(-n2cccc2)c(Br)c1Cl | 30
CCN(C[C@H]1[C@H](c2ccccc2)[C@@H](CO)N1CC1CC1)C(=O)c1ccccn1 | 10
CCCCS(=O)(=O)N1CC[C@H]2[C@@H]1CCN2c1nncs1 | -24
C=CCN(CC=C)C(=O)CN1CCCC(C(N)=O)C1 (stereo not drawn) | 19
O=C(O)C1CC(=O)N(Cc2cnc3ccccc3c2)C1 (stereo not drawn) | -24
Cc1cccc(Nc2nc(C(=O)NCc3ccc(N(C)C)cc3)nc3ccccc23)c1 | -78*
Cc1nc(C)c(C(=O)N2CCC(c3cc(=O)[nH]c(N(C)C)n3)C2)s1 (stereo not drawn) | -42
